Mtb growth = Mycobacterium tuberculosis H37Rv growth inhibition, cell based, confirmatory dose response (AID 1949) | inhibition, % at 10 µg/mL; hits with a dose series show IC50 in µg/mL | most inactive calls were filed without a number and no value below 0 was filed | 1.6% of 100,000 active;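 active = confirmed in a dose series; inconclusive = about 50% or more but not retested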;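 also: bacteria grown 7 days with compound before Alamar blue readout; 0% = untreated bacteria and 100% = reference antibiotic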
An asterisk follows results filed as active; i = inactive; ? = inconclusive.

SMILES	Mtb growth
Cc1cc(=O)c2c(=O)oc3ccccc3c2o1	4%
Cc1cc(N2CCN(S(=O)(=O)c3ccc(Cl)c(Cl)c3)CC2)c2ccccc2n1	i
COc1ccc(N(CC(=O)Nc2ccccc2C(=O)NC(C)C)S(C)(=O)=O)cc1Cl	i
Cc1cc(OCCn2ccnc2)cc(C(C)C)c1	7.5µg/mL*
Cc1cc(Cl)ccc1N1CCN(CCNC(=O)Nc2ccc(F)cc2)CC1	i
c1ccc(Cn2c(NCc3ccco3)nc3ccccc32)cc1	i
CCc1cc(C(=O)OC)c(NC(=O)CC2Sc3ccccc3NC2=O)s1 (stereo unspecified)	i
O=C(O)c1ccc(CSc2nnc(-c3ccncc3)o2)cc1	i
C=CCOc1c(Br)cc(CNc2nn[nH]n2)cc1OC	i
CCOc1ccc(C(=O)NC(=S)Nc2cc(C(=O)OC)cc(C(=O)OC)c2)cc1Cl	i
CC(C)(C)NC(=O)c1ccc(NC(=O)CSc2ccccc2)cc1	i
CCOC(=O)c1ccc(NS(=O)(=O)c2ccc(Br)s2)cc1	i
O=C(Nc1nc(-c2ccc(I)cc2)cs1)c1ccccc1	4%
COc1ccc(C2C(C(=O)Nc3ccccc3F)=C(C)NC3=C2C(=O)CCC3)cc1 (stereo unspecified)	i
CCc1cc2c(=O)c(-c3nc(C)cs3)c(C(C)C)oc2cc1OC(=O)C(C)C	i
Cc1cccc(C)c1NC(=O)CN(c1ccc(F)cc1)S(C)(=O)=O	i
CS(=O)(=O)NCCc1c[nH]c2ccc(Cl)cc12	i
c1ccc(COc2ccc(OCCCN3CCCCCC3)cc2)cc1	i
CCc1c(C)sc(NC(=S)Nc2ccc(I)cc2)c1C(=O)OC	i
O=C(Nc1ccccc1NC(=O)c1cc(Cl)ccc1Cl)c1cc(Cl)ccc1Cl	4%
Cc1cc(Cl)ccc1NC(=O)CSc1nnc(Cc2ccccc2)o1	i
O=C(O)c1cc(C(=O)O)n(Cc2ccc(Cl)cc2Cl)n1	i
O=C(CSc1ccccc1)Nc1ccccc1C(=O)NC1CCCCC1	i
Fc1ccc(CNC(=S)Nc2ccc(Nc3ccccc3)cc2)cc1	?
Cc1ccccc1C(=O)N1CCN(c2ccc(NC(=O)c3cccc4c(Cl)cccc34)cc2)CC1	i
N#CCC(=O)c1ccc(Br)cc1	i
O=C(c1ccccc1SCc1ccc(F)cc1)N1CCOCC1	i
CCN1C(=O)C(O)(CC(=O)c2ccccn2)c2ccccc21 (stereo unspecified)	i
Cc1cc(C)nc(N(C#N)Cc2cccc([N+](=O)[O-])c2)n1	0%
O=C(NC12CC3CC(CC(C3)C1)C2)c1ccco1	i
O=C(CCNc1cccc(Br)c1)c1cccs1	5.4µg/mL*
Cc1c(F)cccc1NC(=O)CCC(=O)O	i
COC(=O)c1ccccc1NC(=O)Cn1cc(C=O)c2ccccc21	i
N#Cc1ccc(N2CCCCCC2)c(F)c1	i
COc1ccc(OCCCC(=O)Nc2c(C)cccc2C)cc1	i
c1coc(-c2nn3c(C4COc5ccccc5O4)nnc3s2)c1 (stereo unspecified)	i
O=C(O)C1C2C=CC(C2)C1C(=O)Nc1ccc(Oc2ccccc2)cc1 (stereo unspecified)	i
CC(C)CNS(=O)(=O)c1ccc(CCC(=O)N2CCN(c3cccc(Cl)c3)CC2)cc1	9%
COc1ccccc1C(=O)Nc1ccc(C#N)cc1	4%
Cc1nn(CCCNC(=O)Nc2ccc(F)cc2F)c(C)c1Br	i
CNC(=O)CN(c1cccc(OC)c1)S(=O)(=O)c1ccc(C)cc1	i
O=C(Nc1ccc(Cl)cc1F)c1cccc(F)c1	i
COC(=O)c1cccc(NS(=O)(=O)c2ccc(NC(C)=O)cc2)c1C	i
O=C(Nc1ccc(Oc2ccccc2)cc1)c1c(F)c(F)c(F)c(F)c1F	i
Cc1cccc(NC(=O)CN(c2cccc([N+](=O)[O-])c2)S(C)(=O)=O)c1C	i
C=CCSc1nc(C)c(CCCC)c(=O)[nH]1	2%
O=C1C2CC=C(Cl)CC2C(=O)N1CC1OCCc2ccccc21 (stereo unspecified)	3%
CN1CCN(S(=O)(=O)c2ccc(NS(=O)(=O)c3cccs3)cc2)CC1	i
CNC(=O)Nc1cccc(C(F)(F)F)c1	i
S=C(NCc1ccc(-n2cccn2)cc1)NCC1CCCO1 (stereo unspecified)	1%
N#CC1=C(SCC(=O)NCc2ccccc2)NC(=O)CC1c1ccco1 (stereo unspecified)	i
Cc1ccc(-n2c(/C=C/c3ccc([N+](=O)[O-])o3)nc3ccc(I)cc3c2=O)cc1	6%
Ic1ccc(OCCCN2CCNCC2)cc1	i
Clc1ccc(CNc2ccc3c(c2)OCCO3)c(Cl)c1	1%
COc1ccc(S(=O)(=O)N(CC(=O)N2CCC(C)CC2)c2ccccc2)cc1	i
O=C(Nc1ccc(Br)c(C(F)(F)F)c1)c1ccccc1	3.3µg/mL*
CCCOc1cc(C)c(S(=O)(=O)N2CCN(C)CC2)cc1C	i
O=C1C2CCCC2=NN1c1ccccc1 (stereo unspecified)	i
CN(C)CCn1c2c(c3ccccc31)CCCn1nnnc1-2	i
N#C/C(=C\Nc1ccccc1)c1nc(-c2cc3cc(Br)ccc3oc2=O)cs1	i

(cont.)
SMILES	Mtb growth
NC(=O)c1ccc(N2CCCCC2)c(NC(=O)c2ccccc2)c1	i
Cc1sc2ncnc(SCC(=O)N3CCC(c4noc5ccc(F)cc45)CC3)c2c1C	i
O=C1CC(=O)N(c2cccc(F)c2)C(=S)N1	i
CC1(C)CC(=O)C(C=NC(CC(=O)O)C(=O)O)=C(O)C1 (stereo unspecified)	4%
O=C(CC1Nc2ccccc2NC1=O)c1ccccc1 (stereo unspecified)	i
O=C1CNC(=O)N1CC(O)Cn1c2ccc(Cl)cc2c2cc(Cl)ccc21 (stereo unspecified)	1%
Cc1ccc(-n2c3c(cc(C(=O)NCCCN4CCOCC4)c2=O)C(=O)CCC3)cc1	i
COc1ccc(NC(=O)c2cc(S(=O)(=O)N3CCOCC3)c(Cl)cc2Cl)c([N+](=O)[O-])c1	i
Cc1cc(COc2ccccc2)oc1C(=O)O	i
COC(=O)c1c(NC(=O)c2c(-c3ccccc3Cl)noc2C)sc(C)c1C	i
CCc1cccc(CC)c1NC(=O)CSc1nnnn1-c1ccccc1	i
CCC(=O)Nc1ccc(-c2nnc(SCC(=O)Nc3ccc(CC)cc3)n2C)cc1	i
CCCN(CCC)S(=O)(=O)c1ccc(NC(=O)C(CC)c2ccccc2)cc1 (stereo unspecified)	0%
Cc1ccc(C2=NN=C(NC(=O)CSc3nc(C)cc(C)n3)SC2)cc1	14%
CSCCC(C(=O)O)N1C(=O)c2c(Cl)c(Cl)c(Cl)c(Cl)c2C1=O (stereo unspecified)	i
CCN(CC)C(=O)N1CCN(S(=O)(=O)c2ccc(C)c(C)c2)CC1	2%
O=C(Nc1ccc(I)cc1C(F)(F)F)c1ccc(Cl)cc1	i
C=CCn1c(SCC(=O)N(CC)c2ccccc2)nnc1-c1ccccc1O	i
CCOC(=O)C1=C(C)N(Cc2ccccc2)C(=O)NC1c1ccc([N+](=O)[O-])cc1 (stereo unspecified)	i
C=CCNCCCOc1ccc(Cl)c(Cl)c1	i
FC(F)(F)c1cc(-c2ccco2)nc(N2CCOCC2)n1	i
Cc1ccc(S(=O)(=O)c2nc(SCc3ccco3)sc2Cl)cc1	8%
COc1c(S(=O)(=O)n2nc(C)cc2C)ccc(Cl)c1Cl	i
CCOC(=O)c1c(NC(=O)c2sccc2C)sc(Cc2ccc3c(c2)OCO3)c1C	5%

As a working copy, 18 of the compounds above:
SMILES	Mtb growth
Cc1ccc(-n2c3c(cc(C(=O)NCCCN4CCOCC4)c2=O)C(=O)CCC3)cc1	i
COc1ccc(NC(=O)c2cc(S(=O)(=O)N3CCOCC3)c(Cl)cc2Cl)c([N+](=O)[O-])c1	i
Cc1cc(COc2ccccc2)oc1C(=O)O	i
COC(=O)c1c(NC(=O)c2c(-c3ccccc3Cl)noc2C)sc(C)c1C	i
CCc1cccc(CC)c1NC(=O)CSc1nnnn1-c1ccccc1	i
CCC(=O)Nc1ccc(-c2nnc(SCC(=O)Nc3ccc(CC)cc3)n2C)cc1	i
CCCN(CCC)S(=O)(=O)c1ccc(NC(=O)C(CC)c2ccccc2)cc1 (stereo unspecified)	0%
Cc1ccc(C2=NN=C(NC(=O)CSc3nc(C)cc(C)n3)SC2)cc1	14%
CSCCC(C(=O)O)N1C(=O)c2c(Cl)c(Cl)c(Cl)c(Cl)c2C1=O (stereo unspecified)	i
CCN(CC)C(=O)N1CCN(S(=O)(=O)c2ccc(C)c(C)c2)CC1	2%
O=C(Nc1ccc(I)cc1C(F)(F)F)c1ccc(Cl)cc1	i
C=CCn1c(SCC(=O)N(CC)c2ccccc2)nnc1-c1ccccc1O	i
CCOC(=O)C1=C(C)N(Cc2ccccc2)C(=O)NC1c1ccc([N+](=O)[O-])cc1 (stereo unspecified)	i
C=CCNCCCOc1ccc(Cl)c(Cl)c1	i
FC(F)(F)c1cc(-c2ccco2)nc(N2CCOCC2)n1	i
Cc1ccc(S(=O)(=O)c2nc(SCc3ccco3)sc2Cl)cc1	8%
COc1c(S(=O)(=O)n2nc(C)cc2C)ccc(Cl)c1Cl	i
CCOC(=O)c1c(NC(=O)c2sccc2C)sc(Cc2ccc3c(c2)OCO3)c1C	5%

Further records follow:
SMILES	Mtb growth
Cc1ccc(N(CC(=O)Nc2cccc(Br)c2)S(C)(=O)=O)c(C)c1	i
CC(O)CCC(=O)NCCNC(=O)CCC(C)O (stereo unspecified)	i
O=C(Nc1ccc(N2CCN(Cc3ccccc3F)CC2)cc1)c1cccc([N+](=O)[O-])c1	i
COc1ccc(CN2C(=O)c3oc4ccc(F)cc4c(=O)c3C2c2ccc(SC)cc2)cc1 (stereo unspecified)	i
CC(Oc1ccc(Cl)cc1Cl)C(=O)Nc1ccc(S(=O)(=O)N2CCOCC2)cc1 (stereo unspecified)	i
CC(C)(C)c1ccc(C(=S)N2CCOCC2)cc1	1%
CNC(=O)CC1C(=O)N(c2ccc(Cl)cc2)C(=S)N1CCc1ccc(OC)c(OC)c1 (stereo unspecified)	i
NNC(=O)CN1C(c2ccccc2)=Nc2ccc(Br)cc2C1c1ccccc1 (stereo unspecified)	i
Cc1ccc(NC(=O)C2CC(=O)NC(N3CCOCC3)=N2)cc1Cl (stereo unspecified)	i
O=C(O)c1ccccc1-c1ccccc1C(=O)NCc1cccnc1	i
O=C(NCCN1CCOCC1)c1cccc(S(=O)(=O)N2CCCC2)c1	1%
Cc1ccc(C(CC(=O)N2CCN(Cc3ccccc3)CC2)c2ccccc2)c(O)c1C (stereo unspecified)	i
CCCc1nc(SCc2cccc(Oc3ccccc3)c2)n[nH]1	3%
Cc1ccc(C(=O)Nc2cc(-c3nc4ccccc4[nH]3)ccc2C)c(C)c1	1%
CCOC(=O)c1[nH]nc(C(=O)c2ccccc2)c1-c1ccccc1	i
Cc1ccc(CN(CC(=O)Nc2ccc(C)cc2C)S(=O)(=O)c2ccc(Cl)cc2)cc1	i
COc1ccccc1C(=O)Nc1c(C)[nH]c(=O)[nH]c1=O	i
O=C1CCC(=O)N1c1ccc(Oc2ccccc2)cc1	i
Cc1ccc(C(=O)CSc2nnc(-c3ccccc3)n2-c2ccccc2)o1	2%
C/C(=N\N=C1\NC(=O)C(CC(=O)Nc2ccc(Cl)cc2)S1)c1ccco1 (stereo unspecified)	i
O=C(O)c1ccc(-c2ccccc2Cl)o1	i
COc1cc(OC)cc(C(=O)OCc2ccc(F)cc2)c1	i
Cc1ccc(C(=O)COc2cc3oc(=O)c4c(c3cc2Cl)CCC4)cc1	i
CCn1nccc1CNC(=S)NCCc1ccccc1	i
Cc1ccc(NC(=O)COc2ccc(Br)cc2C)c([N+](=O)[O-])c1	i
O=S1(=O)N=C(Nc2ccccc2C(F)(F)F)c2ccccc21	i
COc1cc(C2NC(=O)CCC2[N+](=O)[O-])cc(Br)c1OC (stereo unspecified)	i
CC(C)CNC(=O)CCC1CCCCC1	i
O=C(O)c1ccccc1COc1ccccc1Cl	i
O=C(Cn1c(=O)oc2ccccc21)Nc1ccc2c(c1)Cc1ccccc1-2	i
CCOc1cc(CNCc2cccs2)ccc1OCC(=O)NC(C)(C)C	i
CCCCOc1ccc(N2CC(C(=O)Nc3c(C)cccc3C)CC2=O)cc1 (stereo unspecified)	i
CCOc1ccc(C(C)NC(=S)Nc2cc(OC)cc(OC)c2)cc1 (stereo unspecified)	i
Cc1cccc(/C(N)=N/OC(=O)c2ccc3c(c2)OCO3)c1	?
COc1ccc(Cl)cc1NC(=O)c1ccc2c3c(cccc13)CC2	i
O=C(COc1ccc(Br)cc1)c1ccc(O)cc1O	15%
O=C(NC1CC1)c1ccc(Cl)c(F)c1F	i
N/C(=N\OC(=O)c1ccco1)c1cccnc1	i
COC(=O)c1ccccc1NC(=O)C(=O)NC1CCC(C)CC1 (stereo unspecified)	1%
COc1ccc(C)cc1N(CC(=O)Nc1ccc(C(F)(F)F)cc1)S(=O)(=O)c1ccccc1	4%
COc1ccc(CN(CCC(c2ccc3c(c2)OCO3)c2ccccc2OC)C(=O)c2ccco2)cc1 (stereo unspecified)	4%
O=C(NCC1CCCO1)/C(=C/c1cccc(Oc2ccccc2)c1)NC(=O)c1ccccc1 (stereo unspecified)	2%
Cn1c(=O)c2ncn(CC(=O)Nc3ccc(N4CCN(C(=O)c5ccccc5)CC4)c(Cl)c3)c2n(C)c1=O	i
CC1CN(O)C2CCc3c(no[n+]3[O-])C12O (stereo unspecified)	1%
c1ccc(Oc2nc(-c3cccnc3)nc3ccccc23)cc1	2%
O=C(CN1C(=O)c2ccccc2C1=O)Nc1nnc(C(F)(F)F)s1	i
O=C(CCN1C(=O)C2C3C=CC(C4CC34)C2C1=O)Oc1ccccc1 (stereo unspecified)	?
COc1ccc(N2CCN(C(=O)C3CCN(C(=O)c4ccc(C(C)(C)C)cc4)CC3)CC2)cc1	i
CC(NC(=O)c1cc(Cl)ccc1Cl)C12CC3CC(CC(C3)C1)C2 (stereo unspecified)	i
Cc1ccc(OCC(O)CN(C)S(=O)(=O)c2ccc(Br)cc2)c(C)c1 (stereo unspecified)	17%

Bioassay records from PubChem.

A portion of the library; rates above refer to the full screens.
